# RE007 growth inh = less growth of the S. pombe RE007 Vpr strain | S. pombe RE007 Vpr strain, BacTiter-Glo ATP luminescence, 24 h; control for the full effect not named in the record | Potency, µM (series often up to 92.2 µM), for inactives: at the top dose activity change, negative = less growth | 0.21% of 360,000 active; active = well fitted falling curve with a large enough effect; inconclusive = small, poorly fitted or top-dose-only effect; inactive = no such curve, though single readings can be large or run the other way;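 note: % is set by controls: 0 for no effect and ±100 for the full control effect; nearly all actives have a fitted effect of over 50% in size; the assay follows cell death caused by Vpr and the record does not say whether a fall means rescue or toxicity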
#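 Fission yeast RE007 carrying one integrated HIV-1 vpr copy, seeded at OD 0.01 in PMG+AL medium with 23 nL pinned compound. Grown 24 h at 30 degrees; viability read by BacTiter-Glo luminescence after 5 min.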
# Marburg entry inh = blocks Marburg virus binding to or entry into cells; Marburg virus pseudotyped entry inhibition, cell reporter; control for the full effect not named in the record; about a third of the inactives were read at about 46 µM; Potency, µM (highest dose often 37.8 µM), for inactives: at the top dose activity change, negative = inhibition, actives largely listed as inhibitors; 1.8% of 300,000 active; AID 540276; active = well fitted inhibition curve with a large enough effect; inconclusive = small, poorly fitted or top-dose-only effect, or effect the other way; inactive = flat fitted curve, though single readings scatter; tested in HEK293 cells; about a fifth of its hits are not listed in these tables; note: % is set by controls: 0 for no effect and ±100 for the full control effect; luciferase read-out
# Cruzain inh Det = inhibitors of Trypanosoma cruzi cruzain with detergent; purified cruzain, Z-FR-AMC fluorescence, 0.01% Triton; AID 1478; Potency, µM, for the others: max response, negative = inhibition, usual class: inhibitors; 0.43% of 200,000 active;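 note: plate controls were neutral wells for no effect and buffer without enzyme for full effect; nearly all actives have a fitted effect of over 40% in size; top concentration of the series not given in the record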
# Target sequence (P25779 123-467 limits assumed): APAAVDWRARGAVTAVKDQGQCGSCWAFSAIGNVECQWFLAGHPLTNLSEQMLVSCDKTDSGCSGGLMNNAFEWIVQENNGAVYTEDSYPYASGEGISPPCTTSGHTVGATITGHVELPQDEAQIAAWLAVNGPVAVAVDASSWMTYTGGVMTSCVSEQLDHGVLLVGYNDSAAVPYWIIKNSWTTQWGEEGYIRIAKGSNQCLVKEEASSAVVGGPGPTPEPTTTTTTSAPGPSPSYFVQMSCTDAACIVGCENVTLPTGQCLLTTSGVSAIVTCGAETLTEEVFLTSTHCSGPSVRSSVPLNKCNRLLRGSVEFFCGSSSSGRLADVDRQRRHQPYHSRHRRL
#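 Detergent-containing arm of a paired screen for aggregation-based inhibition: 0.01% Triton X-100 present. Cruzain at 1.5 nM cleaved 2 uM Z-FR-AMC at pH 5.5 with 5 mM DTT; AMC fluorescence gain over 60 s measured activity.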
# 2A StopGo = FMDV 2A StopGo reporter, luciferase signal | 1.2% of 410,000 active | human cells with a luciferase reporter of 2A StopGo recoding; control for the full effect not named in the record | Potency, µM (titrated, usually from 57.9 µM), inactives show at the top dose signal change, negative = less light | AID 1159524; active = well fitted falling curve with a large enough effect; inconclusive = small, poorly fitted or top-dose-only effect; inactive = no such curve, though single readings can be large or run the other way; tested in HEK293T cells; note: % is set by controls: 0 for no effect and ±100 for the full control effect; nearly all actives have a fitted effect of over 45% in size; luciferase light after 4 h
# NS1 function inh = influenza NS1 inhibition; S. cerevisiae slowed by influenza A NS1, growth recovery by OD600; Potency, µM (series often up to 46.1 µM), inactives show top-dose activity, positive = more growth; 0.4% of 270,000 active; AID 2326; active means well fitted rising curve with a large enough effect; inconclusive means small, poorly fitted or top-dose-only effect; inactive means no such curve, though single readings can be large or run the other way; note: nearly all actives have a fitted effect of over 50% in size
#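 In this qHTS, NS1 from influenza A is expressed in budding yeast, where it slows growth. Cells are switched from glucose to 2% galactose medium (pH 6.0, -URA), treated with compound, and growth recovery is read at OD600.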
# LASV entry inh = Lassa virus entry inhibition; AID 540256; Lassa virus pseudotype entry inhibition, cell reporter; control for the full effect not named in the record; 1.2% of 300,000 active; Potency, µM (highest dose often 37.9 µM), inactives show top-dose activity change, negative = inhibition, usual class: inhibitors; active means well fitted inhibition curve with a large enough effect; inconclusive means small, poorly fitted or top-dose-only effect, or effect the other way; inactive means flat fitted curve, though single readings scatter; tested in HEK293 cells; note: % is set by controls: 0 for no effect and ±100 for the full control effect; nearly all actives have a fitted effect of over 50% in size; luciferase read-out
# Cruzain inh noDet = cruzain (T. cruzi) inhibition without detergent | P25779 | purified cruzain, Z-FR-AMC fluorescence, no detergent | Potency, µM, inactives show max response, negative = inhibition, most hits filed as inhibitors | 2.3% of 200,000 active;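 note: plate controls were enzyme without inhibitor for no effect and buffer without enzyme for full effect; nearly all actives have a fitted effect of over 40% in size; top concentration of the series not given in the record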
#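 Purified cruzain at 1.5 nM, pre-incubated 15 min with compound at room temperature in 100 mM sodium acetate pH 5.5, 5 mM DTT, 0.00005% Triton X-100. Reaction started with 2 uM Z-FR-AMC; AMC fluorescence increase over 60 s gives rate.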
# SARS PLP yeast = SARS-CoV PLP inhibition in yeast | S. cerevisiae expressing SARS-CoV PLpro, growth rescue; control for the full effect not named in the record | Potency, µM (highest dose often 32.9 µM), without a hit: at the highest dose activity, positive = growth rescue | 0.19% of 330,000 active | AID 485353; active means well fitted rising curve with a large enough effect; inconclusive means small, poorly fitted or top-dose-only effect; inactive means no such curve, though single readings can be large or run the other way; note: 0% is about no effect; nearly all actives have a fitted effect of over 55% in size; growth read by luminescence after 48 h
# An asterisk follows results filed as active; ? = inconclusive; . = not tested or not shown; & = joins results of further samples; [ ] = dose if it differs, or a comment. Unless noted, calls come from the whole dose curve; as a rule, active = well fitted curve in the direction sought with a large enough effect; inconclusive = small, poorly fitted or top-dose-only effect, or another doubt; inactive = no such curve, though single readings can be large; an effect the other way counts as inactive or inconclusive. Potency is the fitted concentration of half-maximal effect. Compounds as they come. Share with any hit: about 4.7%.
# The line under a structure holds: 2A StopGo	Cruzain inh noDet	Marburg entry inh	Cruzain inh Det	NS1 function inh	SARS PLP yeast	RE007 growth inh	LASV entry inh
O=C(O)/C=C/c1nc(-c2ccccc2)n2ccccc12
→ -27%	?	?	?	?	-20%	-8%	1%
O=S(=O)(c1ccc2nc(N3CCN(c4ccccc4F)CC3)ccc2c1)N1CCCCC1
→ -39%&-29%	-19%	.	4.5%	3%	2%	5%	-2%[46.1 µM]
O=S(=O)(Nc1ccc2c(c1)OCO2)c1cccc(Br)c1
→ 74%[activator]	.	8%	.	.	-3%	-11%	7%
O=C(CCNS(=O)(=O)c1ccccc1F)N1CCN(C(c2ccccc2)c2ccccc2)CC1
→ -25%	.	?	.	.	3%	5%	?
CN1CCSc2ccc(C(=O)NCc3cccc(F)c3)cc21
→ 64%[activator]	.	.	.	9%	-15%	0%	.
O=C(N/N=C/c1cc(Cl)cc([N+](=O)[O-])c1O)C1CC1
→ -7%	.	.	.	-60%	-5%	-30%	.
O=C(O)c1ccccc1C(=O)NNC(=O)C(c1ccccc1)c1ccccc1
→ -13%	.	.	.	17%	-1%	8%	.
COc1ccccc1NC(=O)N(Cc1ccccc1)c1ccccn1
→ 9%	-11%	6%	-2.4%	1%	-6%	5%	7%
Cc1cc(/C=C2/SC(=O)NC2=O)c(C)n1-c1ccc(N2CCOCC2)cc1
→ ?	17%	?	-2.4%	5%	-16%	10%	?
Cc1nc2ccc([N+](=O)[O-])cc2nc1C
→ -6%	.	13%[46.1 µM]	.	.	0%	4%	26%[46.1 µM]
O=C(COC(=O)CNS(=O)(=O)/C=C/c1ccccc1)Nc1cccc2ccccc12
→ 3%	.	18%[46.1 µM]	.	3%	0%	-1%	1%
Cc1cc(C)nc(/N=C(\N)Nc2ccc(C)c([N+](=O)[O-])c2)n1
→ ?	-8%	-38%	1.3%	?	-1%	1%	2%
CC1CCCCN1CCCNC(=O)CCCN1C(=O)c2cccnc2Sc2ccccc21 (stereo unspecified)
→ -17%	.	.	.	-2%	1%	-6%	.
CCCC(C)NC(C)C(=O)NC1CCCC1 (stereo unspecified)
→ -9%	1%	13%	-3.4%	-8%	6%	0%	-4%
COC(=O)c1ccccc1NC(=O)CSc1nccn1C
→ 11%	10%	4%	2.5%	3%	8%	26%	3%
CC(=O)N1CCCN(Cc2cn(-c3ccc(C)cc3)nc2-c2ccc(F)cc2)CC1
→ -1%	.	?	.	-4%	-1%	8%	?
COc1ccccc1NC(=O)CCC(=O)OC(C)C(=O)c1ccccc1 (stereo unspecified)
→ -4%	.	7%[46.1 µM]	.	-5%	1%	1%	.
CC(C)CCNC(=O)Cc1ccc(Nc2nc(=S)[nH]c3ccccc23)cc1
→ -2%	.	?	.	-10%	-2%	5%	.
COc1ccc(N(CC(=O)NCCSc2ccccc2)S(=O)(=O)c2ccccc2)cc1
→ ?	.	.	.	-5%	-1%	32%	.
COc1cc(NC(=O)c2cccc3c2C(=O)N(C2CCCCC2)C3)cc(OC)c1OC
→ ?	?	?	-8.6%	-36%	-8%	2%	?

# Next part, overlapping the part above by 4 compounds.
# The line under a structure holds: 2A StopGo	Cruzain inh noDet	Marburg entry inh	Cruzain inh Det	NS1 function inh	SARS PLP yeast	RE007 growth inh	LASV entry inh
COc1ccccc1NC(=O)CCC(=O)OC(C)C(=O)c1ccccc1 (stereo unspecified)
→ -4%	.	7%[46.1 µM]	.	-5%	1%	1%	.
CC(C)CCNC(=O)Cc1ccc(Nc2nc(=S)[nH]c3ccccc23)cc1
→ -2%	.	?	.	-10%	-2%	5%	.
COc1ccc(N(CC(=O)NCCSc2ccccc2)S(=O)(=O)c2ccccc2)cc1
→ ?	.	.	.	-5%	-1%	32%	.
COc1cc(NC(=O)c2cccc3c2C(=O)N(C2CCCCC2)C3)cc(OC)c1OC
→ ?	?	?	-8.6%	-36%	-8%	2%	?
O=C1CN(C(=O)c2cc(Br)c(Br)s2)c2ccccc2N1
→ -19%	-6%	?	-6.9%	-3%	-6%	1%	?
Cc1ccccc1NS(=O)(=O)c1nnc(NC(=O)c2ccco2)s1
→ 20%	-13%	.	-2.4%	.	.	.	9%[46.1 µM]
CC(C)C(=O)OC/C(O)=C(\C#N)c1nc2ccccc2[nH]1
→ 6%	.	-20%[46.1 µM]	.	.	1%	-5%	0%[46.1 µM]
Cc1cccc(-n2cc(-c3ccccc3)c3c(NN4CCOCC4)ncnc32)c1
→ -17%	?	17%	-8.4%	-29%	11%	4%	?
CCc1nnc(NC(=O)C2(C)COC(c3ccc(OC)cc3)OC2)s1 (stereo unspecified)
→ -12%	.	1%[46.1 µM]	.	.	0%	13%	?
CC(OC(=O)CCN=C1NS(=O)(=O)c2ccccc21)C(=O)NC1CCCCC1C (stereo unspecified)
→ -8%	.	5%	.	.	-1%	?	-11%
Cc1cc(C)c(C#N)c(SCc2ccccc2)n1
→ -13%	-20%	4%	-6.9%	-19%	12%	-22%	0%
Cc1ccnc(NC(=O)Nc2ccc3c(c2)N(C)C(=O)CS3)c1
→ 16%	-10%	?	-3.3%	?	17%	-2%	?
CCOCCn1c(N2CCCC2)nc2c1c(=O)n(C)c(=O)n2C
→ -15%	.	-16%[46.1 µM]	.	3%	13%	-16%	1%[46.1 µM]
Cc1ccc(S(=O)(=O)C(C#N)c2nc3ccccc3nc2OC(C)C)cc1 (stereo unspecified)
→ 33%[activator]	-18%	-22%	-5.0%	-20%	-7%	2%	16%
O=C(COC(=O)c1cncc(Br)c1)NCCC1=CCCCC1
→ -19%	-20%	14%	3.9%	-20%	2%	7%	0%
O=c1[nH]c2ccc(S(=O)(=O)NCCO)cc2[nH]1
→ -18%	.	16%[46.1 µM]	.	-2%	0%	22%	2%
O=C1CCCCC1c1cccc2ccccc12 (stereo unspecified)
→ -15%	.	?	.	.	-6%	3%	-11%
Cc1ccc2c(c1)c1c(n2C)C(C(N)=O)CCC1 (stereo unspecified)
→ -18%	-3%	10%	1.2%	-3%	-8%	-13%	-3%
COc1ccc(C(CC(=O)NC(C)(C)C)n2cccc2)cc1 (stereo unspecified)
→ -6%	3%	3%	5.2%	-11%	-12%	2%	-2%
COc1ccc(NC(=O)CSCc2cc(=O)c3cc(Cl)ccc3[nH]2)cc1
→ 3%	-8%	.	2.9%	.	.	.	6%[46.1 µM]
O=C(COc1ccc(F)cc1)NC1CC(=O)N(c2ccc3c(c2)OCCO3)C1 (stereo unspecified)
→ 12%	5%	.	-3.7%	.	.	.	18%[46.1 µM]
CC1(C)c2ssc(=S)c2-c2ccccc2N1C(=O)CSC1=NCCS1
→ ?	?	?	-7.2%	?	-8%	3%	-20%
Cc1cc(C(=O)COC(=O)c2ccc(Cl)c(S(N)(=O)=O)c2)c(C)n1C1CC1
→ -1%	.	-1%	.	.	7%	3%	12%
COc1ccc([N+](=O)[O-])cc1COc1cc(C)cc2oc(=O)cc(-c3ccccc3)c12
→ -26%	32µM*	?	-0.5%	5%	-11%	-10%	?
CC1=C(c2ccc(C)c(C)c2)S(=O)(=O)N=C1N1CCC(C(=O)NCc2ccc(N(C)C)cc2)CC1
→ 3%	?	.	-8.7%	.	.	.	-23%[46.1 µM]
Cc1ncoc1C(=O)N1CCCC(C(=O)Nc2cccc(-c3ccc(F)cc3)c2)C1 (stereo unspecified)
→ -2%	.	2%	.	-7%	0%	4%	?
Cc1ccc(NC(=O)CCC(=O)NNC(=O)COc2ccccc2)c(C)c1
→ -15%	-7%	1%	-0.3%	0%	-1%	5%	2%
CCOC(=O)c1c(-c2ccccc2)nc2cc(C)ccn12
→ 30%[activator]	-6%	-10%	-2.2%	-61%	-24%	?	4%
c1ccc(-c2cc(N3CCOCC3)nc3ccccc23)cc1
→ ?	6%	?	-1.1%	-52%	.	4%	-20%
CC1CCN(C(=S)Nc2cccc(S(=O)(=O)N(C)C)c2)CC1
→ 22%	.	2%	.	.	-2%	-3%	-7%
CCN1CCN(C(=O)c2ccc3c(Cl)c4c(nc3c2)CCCC4)CC1
→ 1%	.	?	.	0%	-9%	-4%	?
COc1ccc(-c2nc(CSCC(=O)NCCC3=CCCCC3)c(C)o2)cc1OC
→ -23%	?	?	-5.2%	-10%	0%	-2%	-11%
O=C(CCCOc1ccc(Cl)cc1Cl)Nc1ccccn1
→ 13%	.	6%[46.1 µM]	.	-2%	0%	1%	27%[46.1 µM]
COc1ccc(OC)c(CCNC(=O)CS(=O)(=O)Cc2nc(-c3ccccc3C)oc2C)c1
→ -29%	27%	-18%	-4.3%	-34%	4%	-7%	-28%
O=C(Nc1nnc(-c2ccco2)o1)c1cccc(Cl)c1
→ 18%	.	?	.	.	-4%	-3%	15%
CCOC(=O)c1nnsc1C(OC)Oc1ccccc1 (stereo unspecified)
→ -17%	.	8%	.	.	.	9%	1%
COc1ccc2nc(NC(=O)C3CSC4(C)CCC(=O)N34)sc2c1 (stereo unspecified)
→ 28%	.	-20%	.	.	.	6%	24%
Cn1c(=O)c2c(ncn2CC(=O)Nc2nnc(Cc3ccccc3)s2)n(C)c1=O
→ 0%	-9%	5%	2.0%	13%	-2%	1%	22%
Cc1nc2scc(C)n2c(=O)c1S(=O)(=O)Nc1ccc(OC(F)(F)F)cc1
→ -6%	.	.	.	0%	-3%	-1%	.
CC1(C)C2CCC1(CS(=O)(=O)N1CCC(C(=O)O)CC1)C(=O)C2 (stereo unspecified)
→ -19%	.	-23%[46.1 µM]	.	-3%	0%	-19%	12%[46.1 µM]

# Quoted from the listing.
# CC(C)C(=O)OC/C(O)=C(\C#N)c1nc2ccccc2[nH]1 in 2A StopGo shows 6%
# COc1ccccc1NC(=O)N(Cc1ccccc1)c1ccccn1 in SARS PLP yeast shows -6%
